A1 inhib: inducers of caspase activity in MEF A1-2A-BIM cells, primary screen, A1 inhibitor project, cell-based, CaspaseGlo luminescence; 21,000 tested, 0.51% active; caspase activation, % (concentration not given with the values); caspase-Glo luminescence, 3 h; percent of clofoctol signal, DMSO as zero;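 active = most replicate scores above 10, or exactly half above 10 with mean activity above 10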;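 also: effector caspase 3 and 7 activity cleaving a DEVD luciferin substrate; 50 nL library stock added to about 30 µL; numbers are from one replicate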
BJeLR viab HTS: BJeLR cell viability loss, primary screen, luminescence, CellTiterGlo ATP. BJeLR fibroblasts viability, 48 h; HRASV12, hTERT and SV40 LT/ST transformed. viability loss activity score, % (concentration not given with the values). 30,000 tested, 0.64% active. AID 2275, 2010; in the data active = viability loss activity score above about 50%; about a fifth of its hits are not listed in these tables;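 also: higher score means fewer live cells and less ATP luminescence; stock transfer was 50 or 100 nL into about 30 µL; 0% = vehicle wells and 100% = a reference killing control; one replicate is shown; the record names a cut of 85%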
* hit, by the source's call; x = no result given. Some of the compounds tested; count on the stated rates, not on these rows.

SMILES	A1 inhib	BJeLR viab HTS
Cc1ccc(S(=O)(=O)Nc2cccc3c2O[C@@H](CN(C)S(C)(=O)=O)[C@@H](C)CN([C@H](C)CO)C3=O)cc1	x	1.2
Cc1ccc(S(=O)(=O)Nc2ccc3c(c2)C(=O)N([C@H](C)CO)C[C@@H](C)[C@@H](CN(C)Cc2ccccc2)O3)cc1	0.8	4.7
CC(C)CCNC(=O)c1ccc2c(SCC(=O)O)c3c(nc2c1)CCC3	0.8	-6.5
COc1ccc(NC(=O)c2ccc3c(c2)OCCO3)cc1	-5.6	13
COc1cccc2sc(NC(=O)c3ccc(S(=O)(=O)N4CCCC(C)C4)cc3)nc12 (centres undefined)	x	-1.0
C[C@@H]1CN([C@H](C)CO)C(=O)c2cc(NS(=O)(=O)c3ccc(F)cc3)ccc2O[C@H]1CN(C)Cc1ccc(C(=O)Nc2ccccc2N)cc1	x	7.1
O=S(=O)(NC1CCCCC1SC1=NCCS1)c1ccc(Cl)cc1 (centres undefined)	x	-0.9
C=CCNC(=S)Nc1sc2c(c1C#N)CCCC2	0.2	-9.7
CNC[C@@H]1Oc2ccc(NS(=O)(=O)c3ccc(C)cc3)cc2C(=O)N([C@@H](C)CO)C[C@H]1C	0.7	0.0
O=S(=O)(Cc1ccccc1)c1ccccc1	-0.2	-5.0
C[C@H](CO)N1C[C@H](C)[C@@H](CN(C)Cc2ccc(C(=O)Nc3ccccc3N)cc2)Oc2ccc(NC(=O)Cc3ccccc3)cc2C1=O	x	4.2
C=CC(=O)Nc1ccc(OC(F)(F)F)cc1	-1.1	0.8
Cc1noc(C)c1S(=O)(=O)N(C)C[C@H]1Oc2c(NC(=O)C3CCCCC3)cccc2C(=O)N([C@@H](C)CO)C[C@H]1C	x	0.2
Cc1ccc(-c2nn(-c3ccccc3)cc2/C=C2\SC(=S)N(CCCC(=O)O)C2=O)cc1	x	-3.4
CCc1ccc(C2CC(=O)NC3=C2C(=O)CC(C)(C)C3)cc1 (centres undefined)	x	1.0
Cc1cc(S(=O)(=O)N2CCCN(c3nc4ccc(Cl)cc4s3)CC2)c(C)cc1Cl	x	-3.5
C=CCn1c(=O)c2c(nc3n2CCCN3C2CCCCC2)n(C)c1=O	-1.3	4.9
C[C@H]1CN([C@@H](C)CO)C(=O)c2cccc(NS(=O)(=O)c3cccs3)c2O[C@@H]1CN(C)C	x	3.2
C[C@H](CO)N1C[C@H](C)[C@H](CN(C)C(=O)Nc2ccccc2)Oc2ccc(NS(=O)(=O)c3cn(C)cn3)cc2C1=O	-0.4	0.1
c1ccc(-c2csc(N3CCC(c4ccccc4)C3)n2)cc1 (centres undefined)	-2.6	-2.8
CC1(C)C=Cc2c(c3occc3c3oc(-c4ccccc4)cc(=O)c23)O1	-0.4	-5.3
C[C@H]1CN([C@@H](C)CO)C(=O)c2cccc(NC(=O)Nc3cccc4ccccc34)c2O[C@H]1CN(C)Cc1ccccc1	x	9.4
COC(=O)c1c(-c2c(Cl)cccc2Cl)noc1NC(=O)NCc1ccccc1	-0.1	-2.6
Fc1ccc(NCc2cn(-c3ccccc3)nc2-c2cccs2)c(F)c1	-1.0	1.8
CCCOc1ccc(C2(C(=O)O)CCCC2)cc1	-1.3	1.1
C[C@@H]1CN([C@H](C)CO)C(=O)c2cccc(NC(=O)Nc3ccc4c(c3)OCO4)c2O[C@H]1CN(C)S(=O)(=O)c1ccc(F)cc1	x	-0.4
C[C@@H]1CN([C@@H](C)CO)C(=O)c2cccc(NC(=O)NC3CCCCC3)c2O[C@H]1CN(C)CC1CCCCC1	x	2.0
Cc1noc(C)c1NC(=O)Nc1ccc2c(c1)C(=O)N([C@H](C)CO)C[C@@H](C)[C@@H](CN(C)C(=O)Nc1cccc3ccccc13)O2	0.3	3.5
CCc1ccc(NS(=O)(=O)c2ccc3[nH]cc(C(=O)NC)c(=O)c3c2)cc1	x	7.1
C[C@@H]1CN([C@@H](C)CO)C(=O)c2cccc(N(C)C)c2O[C@H]1CN(C)C(=O)NC1CCCCC1	x	1.8
C[C@H](CO)N1C[C@H](C)[C@H](CN(C)Cc2ccncc2)Oc2c(NS(=O)(=O)c3cn(C)cn3)cccc2C1=O	x	3.2
C[C@@H]1CN([C@H](C)CO)C(=O)c2cccc(NS(=O)(=O)c3cn(C)cn3)c2O[C@H]1CN(C)Cc1ccc(C(=O)O)cc1	x	-4.6
C[C@H]1CN([C@@H](C)CO)C(=O)c2cccc(NC(=O)Nc3ccccc3)c2O[C@@H]1CN(C)S(=O)(=O)c1ccc(Cl)cc1	x	-0.7
CCCNC(=O)Cn1cc2c(n1)CCCCC2	1.0	-5.3
COC(CN(C(C)=O)C1CCCc2c1[nH]c1ccc(C)cc21)OC (centres undefined)	1.1	-4.8
COc1cc(C(=O)NCC(c2ccccc2)c2c[nH]c3ccccc23)cc(OC)c1OC (centres undefined)	0.4	1.8
COc1ccc(S(=O)(=O)Nc2ccc3c(c2)C(=O)N([C@H](C)CO)C[C@@H](C)[C@H](CN(C)S(C)(=O)=O)O3)cc1	0.3	-0.2
CCCN(CCC)C(=O)Cn1c(=O)oc2cc(S(=O)(=O)N3CC(C)CC(C)C3)ccc21 (centres undefined)	0.7	-4.2
Cc1ccc(S(=O)(=O)Nc2ccc3c(c2)C(=O)N([C@H](C)CO)C[C@@H](C)[C@@H](CN(C)CC2CC2)O3)cc1	0.8	-0.3
Cc1cc(C(=O)Nc2cccc3c2O[C@@H](CN(C)S(=O)(=O)c2cn(C)cn2)[C@H](C)CN([C@@H](C)CO)C3=O)n(C)n1	x	-6.9
CCOC(=O)CC(Sc1ccccc1N)c1cc(OC)c(OC)c(OC)c1 (centres undefined)	-0.6	0.5
CC(C)(C)c1cc2ncnc(NC3CCN(Cc4ccccc4)CC3)c2s1	x	5.2
COC(CNC(=O)c1ccc2c(c1)N(Cc1ccccc1F)C(=O)c1ccccc1S2=O)OC (centres undefined)	x	-4.4
C=CCNC(=O)c1cc2c(=O)n3ccccc3nc2n(CCC)c1=N	-1.1	3.5
Cc1cc(C)c2c(n1)sc1c(SCC(=O)c3ccc(Br)cc3)ncnc12	-0.8	-4.2
CN1CCN(/N=C/c2nc(-c3ccccc3)n3ccccc23)CC1	x	-1.1
O=C(O)CCNS(=O)(=O)c1ccc(Br)cc1	-0.3	-2.2
Cc1noc(C)c1S(=O)(=O)N(C)C[C@H]1Oc2ccc(NS(=O)(=O)c3cccs3)cc2C(=O)N([C@H](C)CO)C[C@H]1C	0.2	21
CC1=CC(C)=NC2=NN=C(NC(=O)Nc3ccc(Cl)c(Cl)c3)C12 (centres undefined)	1.3	8.4
Cc1noc(C)c1S(=O)(=O)Nc1ccc2c(c1)C(=O)N([C@@H](C)CO)C[C@@H](C)[C@H](CN(C)C(=O)Nc1cccc3ccccc13)O2	0.0	1.9
CC(C)NC(=O)Nc1ccc2c(c1)C(=O)N([C@H](C)CO)C[C@H](C)[C@H](CN(C)S(C)(=O)=O)O2	0.3	0.1
Cc1cccc(N2CN(Cc3ccco3)CNC2=S)c1	0.5	2.3
O=C(CN1CCOc2ccccc21)NC1CCCCCC1	0.7	5.6
C[C@@H]1CN([C@H](C)CO)C(=O)c2cccc(NC(=O)c3ccc(-c4nccs4)cc3)c2O[C@H]1CN(C)Cc1ccc(C(=O)O)cc1	x	-4.0
S=C1CC(c2ccccc2)Sc2ccccc2N1 (centres undefined)	-0.7	-1.7
O=C(CN1C2=NCCN2c2ccccc21)c1ccc(Cl)cc1Cl	x	3.8
CSc1cccc(NC(=O)/C=C/c2ccc(C(C)C)cc2)c1	x	5.6
C[C@H]1CN([C@@H](C)CO)C(=O)c2cc(NC(=O)CCCN(C)C)ccc2O[C@H]1CN(C)C(=O)Nc1ccc(F)cc1	-0.7	0.3
COc1ccc(CN(C)C[C@H]2Oc3c(NS(=O)(=O)c4cccs4)cccc3C(=O)N([C@@H](C)CO)C[C@H]2C)cc1	x	2.3
CC1(C)c2cc(Cl)ccc2-n2c1cc(O)c(-c1ccccc1)c2=O	-1.0	-0.3
Other compounds:
SMILES	A1 inhib	BJeLR viab HTS
COc1ccc(NC(=O)Nc2cccc3c2O[C@H](CN(C)C(=O)Nc2cccc4ccccc24)[C@H](C)CN([C@@H](C)CO)C3=O)cc1	x	0.7
CC(=O)NCCOc1c(C)cccc1C	-0.3	-6.9
CC1(C)Cc2c(ccc3ccccc23)C(=NCCC(=O)O)N1	0.6	-4.9
Cc1[nH]c(=S)[nH]c1C12CC3CC(CC(C3)C1)C2	1.6	-6.2
O=C(NCCCN1CCOCC1)c1ccc2c(=O)n(CCCN3CCCC3=O)c(=S)[nH]c2c1	0.9	-2.3
COc1ccc(-c2cc(C(F)(F)F)nc(SCCC(=O)N(C)Cc3ccccc3)n2)cc1	-0.7	-1.2
COc1ccc(NC(=O)N(C)C[C@@H]2Oc3ccc(NC(=O)c4ccncc4)cc3C(=O)N([C@@H](C)CO)C[C@@H]2C)cc1	0.4	0.2
O=C(O)C1CCCCC1C(=O)Nc1ccc2c(c1)OCCO2 (centres undefined)	-0.3	-2.2
Cc1cccc(CCNC(=O)CCc2nnc3n(Cc4ccccc4)c(=O)c4ccccc4n23)c1	-0.3	6.1
O=C(/C=C/c1ccc(Cl)cc1)NCc1ccccc1	-1.3	0.0
Nc1nc2c(-c3ccc(Br)cc3)nnn2c2ccccc12	-4.5	-1.6
CNC[C@H]1Oc2ccc(NC(=O)CCCN(C)C)cc2C(=O)N([C@H](C)CO)C[C@@H]1C	0.0	-5.6
O=C(CSc1c2c(nc3ccc(Cl)cc13)CCCC2)NCc1ccccn1	x	-3.5
c1ccc(CNC2CCCc3c2[nH]c2ccc(-c4ccccc4)cc32)cc1 (centres undefined)	x	0.3
CC(C)NC(=O)Nc1ccc2c(c1)C(=O)N([C@H](C)CO)C[C@@H](C)[C@H](CN(C)Cc1ccc3c(c1)OCO3)O2	-0.5	4.8

Next part, overlapping the part above by 3 compounds.
SMILES	A1 inhib	BJeLR viab HTS
O=C(CSc1c2c(nc3ccc(Cl)cc13)CCCC2)NCc1ccccn1	x	-3.5
c1ccc(CNC2CCCc3c2[nH]c2ccc(-c4ccccc4)cc32)cc1 (centres undefined)	x	0.3
CC(C)NC(=O)Nc1ccc2c(c1)C(=O)N([C@H](C)CO)C[C@@H](C)[C@H](CN(C)Cc1ccc3c(c1)OCO3)O2	-0.5	4.8
COc1ccc(NC(=O)N(C)C[C@H]2Oc3c(NS(=O)(=O)c4ccccc4)cccc3C(=O)N([C@H](C)CO)C[C@H]2C)cc1	x	-4.1
CCC(N=c1cc(-c2ccc(OC)cc2)oc2ccc(C)cc12)C(=O)O (centres undefined)	1.3	3.3
O=C1CC(=O)N(c2ccccc2)N1c1ccccc1	1.0	0.6
COc1ccc(S(=O)(=O)Nc2cccc3c2O[C@@H](CN(C)S(=O)(=O)c2ccc(Cl)cc2)[C@H](C)CN([C@H](C)CO)C3=O)cc1	x	-9.3
OC(CSc1nccc(-c2ccc3c(c2)OCCO3)n1)C(F)(F)F (centres undefined)	-7.3	6.5
COC(=O)c1ccc(NC(=O)COc2ccc3ccccc3c2Br)cc1	-1.1	1.8
COc1ccc(NC(=O)C2CCCN(S(=O)(=O)c3ccc4c(c3)oc(=O)n4C)C2)cc1Cl (centres undefined)	x	-4.2
N#CC1c2ccc(Br)cc2C=CC1c1ccccc1 (centres undefined)	0.5	5.8
NCc1ccccc1CC(=O)N[C@@H]1C(=O)N2C(C(=O)O)=C(CSc3nnnn3CC(=O)O)CS[C@H]12	0.4	-4.7
Cc1cc2cc(CNC(=O)C(C)(C)Oc3ccc(Cl)cc3)ccc2n1C	x	-4.7
COc1ccc(S(=O)(=O)N(C)C[C@@H]2Oc3c(NC(=O)c4nc5ccccc5s4)cccc3C(=O)N([C@@H](C)CO)C[C@H]2C)cc1	x	-4.3
Cn1cccc1Cc1nnc(SCC(=O)Nc2ccc3c(c2)OCCO3)n1CCc1ccccc1	0.6	-1.4
C[C@H](CO)N1C[C@H](C)[C@H](CN(C)S(C)(=O)=O)Oc2c(NS(C)(=O)=O)cccc2C1=O	x	-2.2
O=C(O)CCNCc1c(Cl)cccc1Cl	0.4	1.0
C/C=C(/C)C(=O)OC(COc1c2ccoc2c(OC)c2oc(=O)ccc12)C(C)(C)O (centres undefined)	-0.2	-3.6
Cc1[nH]c2ccccc2c1SCC(=O)NN	0.5	0.9
C[C@@H]1CN([C@H](C)CO)C(=O)c2cccc(NC(=O)C3CCOCC3)c2O[C@H]1CN(C)S(=O)(=O)c1cccs1	x	-1.9

Molecules from the list above with an aryl thioether with sulfur outside any ring:
SMILES	A1 inhib	BJeLR viab HTS
CC(C)CCNC(=O)c1ccc2c(SCC(=O)O)c3c(nc2c1)CCC3	0.8	-6.5
CCOC(=O)CC(Sc1ccccc1N)c1cc(OC)c(OC)c(OC)c1 (centres undefined)	-0.6	0.5
Cc1cc(C)c2c(n1)sc1c(SCC(=O)c3ccc(Br)cc3)ncnc12	-0.8	-4.2
CSc1cccc(NC(=O)/C=C/c2ccc(C(C)C)cc2)c1	x	5.6
COc1ccc(-c2cc(C(F)(F)F)nc(SCCC(=O)N(C)Cc3ccccc3)n2)cc1	-0.7	-1.2
O=C(CSc1c2c(nc3ccc(Cl)cc13)CCCC2)NCc1ccccn1	x	-3.5
OC(CSc1nccc(-c2ccc3c(c2)OCCO3)n1)C(F)(F)F (centres undefined)	-7.3	6.5
NCc1ccccc1CC(=O)N[C@@H]1C(=O)N2C(C(=O)O)=C(CSc3nnnn3CC(=O)O)CS[C@H]12	0.4	-4.7
Cn1cccc1Cc1nnc(SCC(=O)Nc2ccc3c(c2)OCCO3)n1CCc1ccccc1	0.6	-1.4
Cc1[nH]c2ccccc2c1SCC(=O)NN	0.5	0.9
